Vif A3G: inhibitors of Vif binding to APOBEC3G peptide, primary screen, biochemical, TR-FRET, GST-Vif 1-94, biotin-A3G peptide, dose response retest (AID 1117319); TR-FRET GST-Vif / biotin-A3G peptide binding; higher % means a stronger effect; test concentration not given here; strong numbers were not always called active; inhibition, %; hits with a dose series show IC50 in µM; hit rate 0.57% among 260,000;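 active = above the screen mean plus three standard deviations and confirmed in dose response; inconclusive = results disagree or hit not tested in dose response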;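 note: Vif residues 1-94 fused to GST binding biotinylated APOBEC3G peptide 110-148; 0% = full assay without inhibitor and 100% = GST in place of GST-Vif; retest series ran down from 100 µM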
ALR H2O2 inh: human ALR oxidase inhibition via reduced H2O2. purified ALR, DTT oxidation, H2O2 HRP-luminol luminescence. P55789. inhibition, % (test concentration not listed). AID 485317. hit rate 3.8% among 290,000;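 active = mean and each replicate at 75% or more; inconclusive = only one of the two met; inactive = neither met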;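 note: stock transfer was 7.5 nL into about 7.5 µL; 0% = neutral wells and 100% = wells with inactivated enzyme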
Target sequence (P55789 whole entry, looked up): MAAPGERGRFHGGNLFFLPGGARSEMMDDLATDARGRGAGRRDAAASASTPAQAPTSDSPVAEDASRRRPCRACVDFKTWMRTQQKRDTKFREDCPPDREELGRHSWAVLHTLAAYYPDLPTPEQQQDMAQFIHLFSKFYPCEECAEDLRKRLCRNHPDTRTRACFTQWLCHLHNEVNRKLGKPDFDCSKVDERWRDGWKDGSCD
FGF22 binding: FGF22 (human) thermal shift binding. calls only at 9.99 µM. AID 651658. Q9HCT0. hit rate 1.5% among 340,000. recombinant FGF22 thermal shift, SYPRO orange fluorescence; percent of sucrose octasulfate shift, DMSO zero;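 active = melting point raised past a set limit in the mean and every replicate; inconclusive = no clear call; three in four hits are not shown here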
Target sequence (Q9HCT0 whole entry, looked up): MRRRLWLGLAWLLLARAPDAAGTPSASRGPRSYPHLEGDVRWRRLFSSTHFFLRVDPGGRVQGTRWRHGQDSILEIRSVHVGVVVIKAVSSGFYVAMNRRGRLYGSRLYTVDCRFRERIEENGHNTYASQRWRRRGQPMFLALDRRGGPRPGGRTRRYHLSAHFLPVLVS
E coli growth: blocks Escherichia coli growth. AID 1053175. OD600, 23 h; active compounds read low. hit rate 0.21% among 330,000. OD600 absorbance (concentration not given with the values);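 active = OD600 absorbance below the run mean of sample wells minus 3.6 SD, in any replicate, cut at about 0.56 in these data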;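 note: stock transfer was 300 nL into about 60 µL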
AF4-AF9 inh: blocks AF4 peptide binding to human AF9; P42568; AlphaScreen, biotin-AF4 peptide binding to FLAG-AF9; inhibition, % at 10 µM; hit rate 0.47% among 350,000; AID 651704;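 active = every replicate reaching a set inhibition limit, whatever the replicate mean, cut at about 25% in these data; inconclusive = mean inhibition reaches that limit but some replicates miss it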;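 note: 0% = plate neutral control median and 100% = total signal loss; the record names both 10 and 1 µM as test concentration; the first replicate is given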
Target sequence (P42568 whole entry, looked up): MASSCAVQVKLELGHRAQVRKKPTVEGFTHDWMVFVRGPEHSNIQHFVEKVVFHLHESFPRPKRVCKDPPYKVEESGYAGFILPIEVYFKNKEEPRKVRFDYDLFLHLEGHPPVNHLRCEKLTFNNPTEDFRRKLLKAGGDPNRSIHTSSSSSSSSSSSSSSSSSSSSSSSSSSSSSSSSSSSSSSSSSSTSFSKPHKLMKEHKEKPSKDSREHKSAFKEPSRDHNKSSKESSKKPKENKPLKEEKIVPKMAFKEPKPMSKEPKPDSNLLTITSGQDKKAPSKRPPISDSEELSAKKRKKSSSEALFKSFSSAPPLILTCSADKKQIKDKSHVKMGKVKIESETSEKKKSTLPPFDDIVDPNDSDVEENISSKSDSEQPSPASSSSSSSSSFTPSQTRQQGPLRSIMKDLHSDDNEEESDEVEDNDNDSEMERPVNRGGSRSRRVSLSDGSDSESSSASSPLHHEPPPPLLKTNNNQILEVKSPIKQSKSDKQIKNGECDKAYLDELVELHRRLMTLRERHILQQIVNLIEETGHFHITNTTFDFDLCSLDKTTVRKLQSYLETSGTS
Ecoli rRNA inh: inhibitors of bacterial rRNA selective over humanized ribosomes; AID 720706; hit rate 1.6% among 350,000; GFP signal change (wild-type ribosome), % (concentration not given with the values); E. coli WT GFP vs humanized-ribosome RFP mutants, fluorescence, 24 h; active compounds read low; DMSO median 0, no signal -100;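 active = significant combined selectivity score with lowered wild-type GFP, culture density cut under 30%, mutant RFP and density less affected; inactive = any of these conditions unmet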; note: one replicate is shown; some compounds called inactive have numbers as strong as hits
HNF4A DNA FP: change in binding of human HNF4 alpha to DNA; P41235; HNF4a-FITC DNA binding, fluorescence polarization, 1 h; activity change, % at 10 µM; hit rate 0.3% among 360,000; in the data active = activity change above about 30%, passing the limit was not always enough;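 note: controls were the assay level and a saturating level of protein; the project sought stronger binding though the title names inhibitors; some compounds called inactive have numbers as strong as hits; positive values seem to mean higher polarization but the record does not say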
Ecoli rRNA inh OD600: recorded beside Ecoli rRNA inh, whose call it bears; OD600 change, %; measured here: OD600 growth;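 optical density of the mix in the first replicate; 0 = DMSO median and -100 = no signal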
Ecoli rRNA inh RFP: further read-out of Ecoli rRNA inh, marked with its call; RFP signal change, %; measured here: RFP humanized mutant strains;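 first replicate; 0 = DMSO median and -100 = no signal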
* hit, by the source's call; i = inactive; ? = inconclusive; . = no result given; & = joins results of further samples.

SMILES	Vif A3G	ALR H2O2 inh	FGF22 binding	E coli growth	AF4-AF9 inh	Ecoli rRNA inh	Ecoli rRNA inh OD600	Ecoli rRNA inh RFP	HNF4A DNA FP
O=C(c1cc(C2CC2)nn1-c1ccccc1)N1CCN(S(=O)(=O)c2ccccc2)CC1	-6%	.	.	0.7	2.7	-5	-2	-5.3	0.2
CCc1nnc(SCC(=O)Nc2ccc3ccccc3c2)n1N	.	.	i	0.67	0.1	-9	-5	-1.0	-1.1
O=C(COc1ncnc2ccccc12)NCCc1ccccc1	-17%	2	i	0.7	5.9	5	-13	-0.9	-1.8
CCOc1ccc(C2=CS/C(=C(\C#N)c3nnc4n3CCCCC4)N2CC)cc1	-3%&-1%	-32	.	0.68	.	.	.	.	0.7
CCN1CCN(C(=S)Nc2cccc([N+](=O)[O-])c2)CC1	10%	7	i	0.7	-7.0	12	11	-9.5	0.7
O=S(=O)(c1ccc(F)cc1)N1C[C@@H]2[C@H](c3ccccc31)[C@@H](CO)N2Cc1ccccc1Cl	.	.	i	.	-4.5	-14	-21	0.4	.
COc1ccc2c(CN3CCCCC3)cc(=O)oc2c1	.	.	i	.	1.3	1	2	-2.2	-1.9
Fc1ccc(-c2[nH]ncc2-c2nnnn2-c2ccccc2)c(F)c1	1%	.	.	0.68	.	.	.	.	-0.2
CCOC(=O)N1CCN(C(=O)c2ccc3c(=O)n(Cc4ccccc4)c(=S)[nH]c3c2)CC1	0%	46	.	0.68	.	.	.	.	0.3
CCOc1ccc(Br)cc1S(=O)(=O)Nc1ccc(C(=O)OCC(=O)Nc2ccc(C#N)cc2)cc1	12%	-5	i	0.68	2.2	-6	0	9.3	1.1
CC(=O)c1cccc(S(=O)(=O)Nc2cccc(S(=O)(=O)NC3=NCCC3)c2)c1	16%	-1	i	0.71	2.9	7	15	1.8	-4.1
COCC#Cc1cnc2c(c1)C(=O)N([C@H](C)CO)C[C@@H](C)[C@H](CN(C)C(=O)c1ccc3c(c1)OCO3)O2	.	.	i	.	-3.5	1	2	-1.2	.
Cc1ccccc1NC(=O)COC(=O)c1cc(S(=O)(=O)N2CCOCC2)ccc1C	.	0	i	0.7	2.6	-2	-9	1.9	-0.9
COc1cc(/C=C/CO)ccc1O[C@@H]1O[C@H](CO)[C@@H](O)[C@H](O)[C@H]1O	.	-8	i	0.69	-0.7	1	0	-2.9	0.3
Nc1cc(=O)[nH]c(SCC(=O)NNC(=O)Cc2ccccc2)n1	-9%	3	i	0.6	-0.4	12	5	-2.2	3.1
CC(Oc1ccc(C(C)(C)C)cc1)c1ccnc2nc(/N=C/N(C)C)nn12 (stereo not drawn)	7%	5	.	.	.	.	.	.	3.1
Cc1nn(Cc2ccccc2)c(Cl)c1/C=C1\NC(=S)NC1=O	14%	-10	i	0.69	-2.9	.	.	.	2.3
CCOc1ccc(N(C(=O)Cn2nnc3ccccc32)C(C(=O)NC(C)(C)CC)c2cccn2C)cc1 (stereo not drawn)	.	-1	.	0.69	.	.	.	.	0.4
CCOC(=O)c1oc2nc3c(cc2c1N)CCCC3	31%	-1	i	0.63	.	-5	4	1.0	6.5
Clc1ccc2[nH]cc(-c3nnnn3-c3ccc4ccccc4c3)c2c1	?	-4	.	0.76	.	.	.	.	-4.8
C=CCSc1nnc(N2C(=O)C(O)=C(C(=O)c3ccco3)C2c2ccccc2F)s1 (stereo not drawn)	.	51	i	0.72	-0.9	-2	-44	16	-25
N#C[C@@H]1[C@H](c2ccccc2-c2ccccc2)[C@H](CO)N1c1ncc(-c2ccccc2)s1	.	.	i	.	8.3	-2	11	-3.7	.
COc1ccccc1-c1cn(CC[C@@H]2CC[C@H](NC(=O)C3CC3)[C@@H](CO)O2)nn1	.	.	i	.	1.6	-1	-8	-1.1	.
CN(C)CCn1c2c(c(SCC(=O)Nc3ccc4c(c3)OCCO4)nc1=O)CCC2	3%	97*	i	0.72	2.5	8	20	0.9	-0.7
C[C@H]1CN([C@@H](C)CO)C(=O)c2cccc(NS(=O)(=O)c3ccc(F)cc3)c2O[C@H]1CN(C)Cc1ccc(Cl)c(Cl)c1	.	-5	i	.	0.8&3.1	-7&-4	-11&-16	-0.4&-0.3	8.0
O=C(/C=C/c1ccccc1[N+](=O)[O-])NCCN1C(=O)S/C(=C\c2ccc(F)cc2)C1=O	-7%	-3	i	0.74	-0.9	7	8	0.0	-4.4
COc1ccc(CCN2C(=O)C3C4CC(C5C(C(N)=O)=NOC45)C3C2=O)cc1OC (stereo not drawn)	12%	-12	.	0.7	.	.	.	.	1.6
C[C@H](CO)N1C[C@H](C)[C@H](CN(C)C(=O)Nc2ccccc2)Oc2ccc(NC(=O)C3CC3)cc2CC1=O	.	.	i	.	-3.1	2	9	-1.5	.
O=C(COc1cccc2c1CCN(Cc1ccccc1)C2=O)NCc1ccco1	.	.	i	0.69	2.5	-7	-8	3.4	0.9
c1ccc(CNc2cncnc2)cc1	.	.	i	0.67	-2.1	4	8	-2.4	-0.4
CCc1ccc(NC(=O)COC(=O)/C=C/c2ccco2)cc1	15%	3	i	0.7	-7.8	0	9	6.2	-5.2
NC(=S)Nc1ccc(S(=O)(=O)c2ccc(NC(N)=S)cc2)cc1	-2%	2	i	0.66	-4.5	1	11	-1.4	0.8
Cc1ccc(N(CCC#N)C(=O)CSc2nnc3ccccn23)cc1	15%	2	i	0.71	-0.4	.	.	.	0.9
Cc1ccc(Nc2nc(COC(=O)C3CC3)cs2)cc1	-3%	.	i	0.68	6.1	-29	-24	-1.4	6.7
COc1ccccc1C1CC(c2ccc(Cl)cc2Cl)Nc2nc(N)nn21 (stereo not drawn)	0%	.	i	0.76	9.3	-56	-75	-17	-0.9
O=C(c1c(F)cccc1F)N1CCCC(c2nc(-c3ccc(F)cc3)no2)C1 (stereo not drawn)	.	-6	i	0.64	-1.5	-2	-3	-2.5	-1.0

Sorted by SMILES length (rising): some entries from above.
SMILES	Vif A3G	ALR H2O2 inh	FGF22 binding	E coli growth	AF4-AF9 inh	Ecoli rRNA inh	Ecoli rRNA inh OD600	Ecoli rRNA inh RFP	HNF4A DNA FP
COc1ccc(CCN2C(=O)C3C4CC(C5C(C(N)=O)=NOC45)C3C2=O)cc1OC (stereo not drawn)	12%	-12	.	0.7	.	.	.	.	1.6
O=C(/C=C/c1ccccc1[N+](=O)[O-])NCCN1C(=O)S/C(=C\c2ccc(F)cc2)C1=O	-7%	-3	i	0.74	-0.9	7	8	0.0	-4.4
C[C@H]1CN([C@@H](C)CO)C(=O)c2cccc(NS(=O)(=O)c3ccc(F)cc3)c2O[C@H]1CN(C)Cc1ccc(Cl)c(Cl)c1	.	-5	i	.	0.8&3.1	-7&-4	-11&-16	-0.4&-0.3	8.0

Other records follow:
SMILES	Vif A3G	ALR H2O2 inh	FGF22 binding	E coli growth	AF4-AF9 inh	Ecoli rRNA inh	Ecoli rRNA inh OD600	Ecoli rRNA inh RFP	HNF4A DNA FP
N#CC1=CC2CN(Cc3ccccc3)C1C1C(=O)N(c3ccccc3)C(=O)C21 (stereo not drawn)	1%	.	i	.	-1.6	-4	-16	-4.2	-1.8
O=C(COc1coc(CN2CCc3ccccc3C2)cc1=O)Nc1ccccc1F	6%	.	i	0.68	1.4	-2	9	2.6	3.3
CO[C@@H]1CN(C)C(=O)c2cc(NC(=O)CC(F)(F)F)ccc2OC[C@H](C)N(C(=O)c2ccccc2F)C[C@@H]1C	.	.	i	.	-0.3	0	2	2.6	.
O=C(NCc1ccccc1)C(c1ccc(Cl)cc1)N(C(=O)c1csnn1)C1CC1 (stereo not drawn)	-6%	1	i	.	0.6	8	21	1.0	-0.8
N#Cc1ccc(CSc2ncccn2)cc1	.	-6	i	0.67	2.7	-4	-1	-0.8	4.2
CCOC(=O)Cc1csc(N/N=C\c2cccc(Br)c2)n1	66%	-1	i	.	10	-8	-7	-8.3	1.2
CC1(c2ccc(Cl)cc2Cl)NC(=O)N(CC(=O)Nc2cccnc2Cl)C1=O (stereo not drawn)	-3%	-1	i	0.64	0.0	-5	-4	2.4	2.8
Cc1ccc(S(=O)(=O)Nc2ccc3c(c2)CC(=O)N([C@@H](C)CO)C[C@@H](C)[C@@H](CN(C)C(=O)Nc2ccc(C(F)(F)F)cc2)O3)cc1	.	.	i	.	1.3	3	-5	1.5	.
C[C@@H]1CN([C@H](C)CO)S(=O)(=O)c2ccc(C#CC3(O)CCCC3)cc2O[C@@H]1CN(C)C(=O)Cc1ccncc1	.	.	i	.	0.4	-4	-2	1.1	.
CCc1nnc(NS(=O)(=O)c2ccc(N/C=C(\C=O)c3nc4cc(Cl)ccc4o3)cc2)s1	9%	-3	.	0.68	-3.0	25	14	25	3.4
Cc1ccc(NCc2nnc(SCC(=O)Nc3cc(C)on3)n2C)cc1	-1%	-6	.	0.77	.	.	.	.	-4.5
CN(CC(=O)Nc1ccc(Cl)cc1)C(=O)CN1C(=O)C2CCCCC2C1=O (stereo not drawn)	.	.	i	.	-0.7	6	12	-1.0	-1.7

Rewritten with the structure last: two of the compounds above.
Vif A3G,ALR H2O2 inh,FGF22 binding,E coli growth,AF4-AF9 inh,Ecoli rRNA inh,Ecoli rRNA inh OD600,Ecoli rRNA inh RFP,HNF4A DNA FP,smiles
.,.,i,.,-0.3,0,2,2.6,.,CO[C@@H]1CN(C)C(=O)c2cc(NC(=O)CC(F)(F)F)ccc2OC[C@H](C)N(C(=O)c2ccccc2F)C[C@@H]1C
66%,-1,i,.,10,-8,-7,-8.3,1.2,CCOC(=O)Cc1csc(N/N=C\c2cccc(Br)c2)n1

Other records follow.
SMILES	Vif A3G	ALR H2O2 inh	FGF22 binding	E coli growth	AF4-AF9 inh	Ecoli rRNA inh	Ecoli rRNA inh OD600	Ecoli rRNA inh RFP	HNF4A DNA FP
C/C(=N/NC(=O)CN1CCN(Cc2ccccc2Cl)CC1)c1ccco1	-8%	.	i	.	4.4	-21	18	1.8	1.4
CCc1cc(C(=O)N(Cc2ccccc2)c2c(N)n(CCOC)c(=O)[nH]c2=O)sc1C	-4%	-2	i	0.71	0.2	15	6	-0.8	-4.0
Cc1cccc(Cn2ccc(N)n2)c1	3%	-1	i	0.73	-4.3	12	0	6.9	-0.9
COc1ccc(S(=O)(=O)Nc2cccc3c2O[C@H](CN(C)S(=O)(=O)c2ccccc2)[C@@H](C)CN([C@H](C)CO)C3=O)cc1	.	0	i	.	-6.4&0.3	-2&7	-4&4	2.2&1.5	-3.3
Cn1c(=O)[nH]c(=O)c2c1nc(N1CCCCCC1)n2Cc1cccc2ccccc12	?	-4	.	0.73	.	.	.	.	-1.7
O=C(Cc1ccsc1)NCC(c1ccco1)N1CCCCC1 (stereo not drawn)	25%	-5	.	0.73	.	.	.	.	1.9
CC1(C(=O)NS(=O)(=O)c2cccc(C#N)c2)CCN1C(=O)C/C=C/c1ccccc1 (stereo not drawn)	.	.	i	.	-0.5	.	.	.	0.2
Cc1ccc(CS(=O)Cc2ccc(C(=O)NCc3ccccc3Cl)o2)cc1 (stereo not drawn)	-7%	-2	i	0.7	2.2	-2	-18	-3.5	2.0
Cc1ccc(NC(=O)CN(C)C(=O)c2cccc(S(=O)(=O)NCc3ccco3)c2)cc1	?	-4	i	0.71	1.8	3	8	1.1	-5.2
CCOC(=O)Cc1csc(NC(=S)NC(=O)C(C)(C)C)n1	-1%	16	.	0.65	.	.	.	.	-2.6
COCCNC(=O)C(c1ccc(F)cc1)N(CCOC)C(=O)CCC(=O)Nc1nccs1 (stereo not drawn)	-1%&13%	2	.	0.7	.	.	.	.	-4.4
CN1CCN(C(=O)c2cc3c(C(F)(F)F)nn(C)c3s2)CC1	6%	-8	.	0.76	.	.	.	.	-3.3
Cc1ccc(S(=O)(=O)N[C@H]2CC[C@@H](CC(=O)N3CCc4ccccc4C3)O[C@H]2CO)cc1	.	.	i	.	-3.8	-10	-17	1.3	.

Source: PubChem BioAssay

An excerpt (hit frequency here may not be typical).
